Screening results (PubChem)
Mtb betalactam = beta-lactam sensitization of Mtb H37Rv | 330,000 compounds, 0.27% hits | AID 434955 | M. tuberculosis H37Rv growth with meropenem, percent inhibition; hits of this screen are not shown here | inhibition, % at 25 µM;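 active = about 74% or more and at least 40 points above the plate without the antibiotic, then above 30% in a dose series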;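 also: growth measured after seven days incubation then overnight dye step; 0% = bacteria only wells and 100% = bacteria with antibiotic; twin plates without the antibiotic show which effects depend on it; some results filed as inactive read as strong as hits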
RecA intein inh = Mtb RecA intein splicing inhibition; AID 2221; cell-free RecA intein splicing, fluorescence; 290,000 compounds, 0.75% hits; P9WHJ3; inhibition, %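 (about 9 µM by stock and volumes)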; in the data active = inhibition above about 30%;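 also: 0% = vehicle wells and 100% = reference inhibitor control wells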
Target sequence (P9WHJ3 whole entry, looked up): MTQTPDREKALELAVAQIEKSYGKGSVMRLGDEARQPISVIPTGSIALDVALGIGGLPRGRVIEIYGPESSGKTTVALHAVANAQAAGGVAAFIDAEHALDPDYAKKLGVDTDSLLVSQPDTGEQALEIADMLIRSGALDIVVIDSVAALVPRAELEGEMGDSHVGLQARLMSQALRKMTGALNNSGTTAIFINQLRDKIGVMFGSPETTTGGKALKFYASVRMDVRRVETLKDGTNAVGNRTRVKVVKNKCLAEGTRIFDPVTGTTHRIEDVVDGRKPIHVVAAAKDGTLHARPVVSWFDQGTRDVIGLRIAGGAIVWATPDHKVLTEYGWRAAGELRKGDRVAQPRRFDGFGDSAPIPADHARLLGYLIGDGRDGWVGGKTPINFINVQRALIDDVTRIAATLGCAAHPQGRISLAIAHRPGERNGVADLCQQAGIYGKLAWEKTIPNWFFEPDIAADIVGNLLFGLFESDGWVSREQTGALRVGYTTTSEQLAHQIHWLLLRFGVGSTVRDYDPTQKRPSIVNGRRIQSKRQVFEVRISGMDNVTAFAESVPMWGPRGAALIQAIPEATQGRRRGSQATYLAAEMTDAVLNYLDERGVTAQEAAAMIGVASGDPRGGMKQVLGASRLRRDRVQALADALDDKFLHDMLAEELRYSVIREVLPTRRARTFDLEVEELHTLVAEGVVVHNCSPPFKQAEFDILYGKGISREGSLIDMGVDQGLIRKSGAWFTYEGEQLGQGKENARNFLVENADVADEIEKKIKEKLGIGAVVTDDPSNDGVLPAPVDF
Mtb growth = M. tuberculosis H37Rv growth inhibitors, H37Rv strain (AID 1626). M. tuberculosis H37Rv growth inhibition; higher % means a stronger effect. inhibition, % at 10 µM; hits with a dose series show IC50 in µM. 220,000 compounds, 0.95% hits;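 active = confirmed in a dose series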;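 also: bacteria incubated seven days before Alamar blue readout; 0% = bacteria only wells and 100% = bacteria with antibiotic wells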
Arbovirus inh = arbovirus infection inhibition; arbovirus infection cell-based antiviral screen; inhibition, % at 10 µM; 200,000 compounds, 0.37% hits; AID 1251;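 active = inhibition from about 30%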;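 also: bluetongue infection of BSR cells; cell survival read as ATP light after 72 h; 0% = infected wells without compound and 100% = uninfected wells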
YopH inh = blocks Yersinia enterocolitica YopH tyrosine phosphatase | fluorescence Ex485/Em525 | inhibition, %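 (about 10 µM by stock and volumes)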 | 140,000 compounds, 0.16% hits;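 active = inhibition of 50% or more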;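 also: controls were vehicle for no effect and minimum signal wells for full effect; inactives centre near -20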
Arbovirus inh repeat = recorded beside Arbovirus inh, whose call it bears; inhibition, %; measured here: 10K subset replicate screen; many hits read low in the repeat;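 first of two repeat runs on a subset; 0% = infected and 100% = uninfected wells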
* marks the source's active call; other numbers are inactive results; x = no result given. The list is partial, so the mix of outcomes need not match the whole.

SMILES | Mtb betalactam | RecA intein inh | Mtb growth | Arbovirus inh | YopH inh | others
CC(C)(C)NC(=O)C1CCC(C)(C(=O)O)C1(C)C (configuration not stated) | 11 | 1.5 | -6% | 9 | 4
CCOC(=O)c1c(NC(=O)c2noc3c2CCCC3)sc(C)c1C | x | x | 0% | -1 | -13
O=C(NCc1ccccc1)C12CN(Cc3ccccc3)CC1C(c1cccc([N+](=O)[O-])c1)=NO2 (configuration not stated) | -19 | 4.6 | 1% | -4 | 16
O=C(COC(=O)c1ccccc1[N+](=O)[O-])NNC(=O)c1cccs1 | -15 | 0.1 | x | x | x
Cc1ccc(N(CC(=O)NCC2CCCO2)C(=O)CCC(=O)Nc2ccccn2)cc1C (configuration not stated) | 4 | -2.4 | 1% | 0 | 5
COc1ccc2nc(SCc3cccnc3)c(C#N)cc2c1 | 1 | -2.5 | 0% | -4 | -27
CC(=O)OC(C)(CCC(C)(OC(C)=O)C(C)=O)C(C)=O (configuration not stated) | x | 1.0 | -1% | 13 | -19
CNC(=S)N(Cc1cc2ccc(OC)cc2[nH]c1=O)CC1CCCO1 (configuration not stated) | -9 | -1.5 | -8% | 4 | x
Cc1ccc(-n2ccc(=O)c(C(=O)Nc3ccc(S(=O)(=O)N4CCOCC4)cc3)n2)cc1 | -2 | 0.6 | x | x | x
Cc1sc2ncn(CC(=O)N3CCC(C(N)=O)CC3)c(=O)c2c1S(=O)(=O)N1CC(C)CC(C)C1 (configuration not stated) | 3 | -3.4 | x | x | x
CNC(=O)CN(c1cc(C)ccc1C)S(C)(=O)=O | -4 | -0.1 | 7% | 1 | 11
COc1ccc2c(c1OC)C(=O)N(c1cccc(NC(C)=O)c1)C2 | -1 | 0.0 | x | x | x
Cc1cc([N+](=O)[O-])c(C)cc1-c1ccc(/C=N/NC(=O)Cn2nnnc2N)o1 | 4 | -5.9 | 7% | 6 | x
COc1cccc(OC)c1C(=O)NC(=S)Nc1cccc(NC(=O)c2ccco2)c1 | -2 | -0.4 | -3% | -4 | x
Cc1nn(-c2ccccc2)c(C)c1C(=O)OCC(=O)N1c2ccccc2NC(=O)C1(C)C | 6 | 4.5 | 1% | 11 | -21

The last six compounds of the part before come first, to join the parts:
SMILES | Mtb betalactam | RecA intein inh | Mtb growth | Arbovirus inh | YopH inh | others
Cc1sc2ncn(CC(=O)N3CCC(C(N)=O)CC3)c(=O)c2c1S(=O)(=O)N1CC(C)CC(C)C1 (configuration not stated) | 3 | -3.4 | x | x | x
CNC(=O)CN(c1cc(C)ccc1C)S(C)(=O)=O | -4 | -0.1 | 7% | 1 | 11
COc1ccc2c(c1OC)C(=O)N(c1cccc(NC(C)=O)c1)C2 | -1 | 0.0 | x | x | x
Cc1cc([N+](=O)[O-])c(C)cc1-c1ccc(/C=N/NC(=O)Cn2nnnc2N)o1 | 4 | -5.9 | 7% | 6 | x
COc1cccc(OC)c1C(=O)NC(=S)Nc1cccc(NC(=O)c2ccco2)c1 | -2 | -0.4 | -3% | -4 | x
Cc1nn(-c2ccccc2)c(C)c1C(=O)OCC(=O)N1c2ccccc2NC(=O)C1(C)C | 6 | 4.5 | 1% | 11 | -21
O=C(CC1NCCNC1=O)Nc1ccc([N+](=O)[O-])cc1 (configuration not stated) | -6 | 2.0 | 0% | 3 | x
CCc1ccc(N(CC(=O)NCc2ccc(OC)cc2)C(=O)CCC(=O)Nc2ccccn2)cc1 | 1 | 3.8 | x | x | x
COc1ccccc1CN1C(=O)CN(C2CCCC2)C(=O)C1c1ccc(F)cc1 (configuration not stated) | -9 | 0.8 | -10% | 2 | 0
COc1ccc(C(=O)C2CCCN(C(=O)c3cc(C(C)C)no3)C2)cc1F (configuration not stated) | 0 | 1.8 | 11% | 2 | x
Cc1ccc2occ(CN3CC4CC(C3)c3cccc(=O)n3C4)c(=O)c2c1 (configuration not stated) | 7 | -4.1 | -16% | 4 | -26 | Arbovirus inh repeat=3
COc1ccccc1OCCNC(=O)c1ccc(Br)cc1 | 1 | 1.3 | x | x | x
CC(=O)NC(=S)NNC(=O)COc1ccc(Br)cc1 | x | x | 1% | 0 | x
CN1CCN(C2=C(Cl)C(=O)N(Cc3ccccc3)C2=O)CC1 | -9 | 4.5 | -7% | -1 | 3
COc1ccc(/C=C/c2nc(S(=O)(=O)c3ccccc3)c(NCCCN(C)C)o2)cc1OC | -1 | -5.6 | x | x | x
O=C(Nc1nc(-c2ccc(F)c(F)c2)cs1)c1cnccn1 | x | 1.9 | 10% | x | x
O=C(Nc1cccs1)Nc1ccccc1Cl | -2 | -3.7 | 10% | -3 | -51
CCOc1ccccc1NC(=O)COc1coc(CN2CCCc3ccccc32)cc1=O | 82 | -0.9 | x | x | x
O=c1oc2ccc3ccccc3c2c2c1SC(C(F)(F)F)C2 (configuration not stated) | 20 | -13 | 3% | 0 | -15
CN(C(=O)C1CCC(=O)N(C2CC2)C1)C1CCCCC1 (configuration not stated) | 6 | -2.0 | x | x | x
CCOc1ccc(OCc2ccc(C(=O)Nc3cccnc3)o2)cc1 | 71 | 0.9 | 54% | -19 | -14
O=C(c1ccc2c(=O)n(C3CCCC3)c(=S)[nH]c2c1)N1CCCCCC1 | 14 | 16 | 5% | -2 | x
CCCn1c(SCC(=O)N2CCN(C(C)=O)CC2)nc2sc3c(c2c1=O)CCC3 | -17 | 1.5 | x | x | x
Cc1ccccc1NC(=O)CSc1nc2scc(C)c2c(=O)[nH]1 | -1 | 2.3 | x | x | x
COc1cccc(-c2cc(N)nn2C(=O)Nc2ccc(Cl)cc2)c1 | 2 | 0.9 | 10% | -4 | -20 | Arbovirus inh repeat=-9
CCOC(=O)C1(CC2CCCCO2)CCN(Cc2cc(F)ccc2-n2cccn2)CC1 (configuration not stated) | 2 | -2.6 | -5% | 1 | x
COc1ccc(OC)c(/C=N/NC(=O)CC(=O)NCc2ccccc2)c1 | 4 | -1.6 | -1% | -7 | x
CCOc1ccc(-n2c(=S)sc3c(=O)n(-c4ccccc4)c(SC)nc32)cc1 | 70 | 3.6 | x | x | x
Cc1cc(C)n2ncc(C(=O)Nc3ccc(Cl)c(Cl)c3)c2n1 | 2 | 1.1 | 4% | -4 | x
Cc1ccc(S(=O)(=O)NCc2cn3c(C)csc3n2)cc1 | -10 | -0.1 | -11% | -1 | -29
Cc1ccc(NC(=O)n2ncc3c(C)cccc32)c(C)c1 | 6 | -0.6 | x | x | x
O=C(COC(=O)c1ccncc1)NC(=O)C1CCCCC1 | -7 | -1.3 | -12% | 0 | -23
O=C(NO)c1ccc(C(=O)N(C2CCCCC2)C2CCCCC2)cc1 | -2 | 17 | -3% | -18 | -26 | Arbovirus inh repeat=-16
Cc1onc(-c2c(Cl)cccc2Cl)c1NC(=O)N(C)N | -2 | 1.2 | 2% | x | x
COc1ccc(N(C=O)C(=S)SC)cc1 | -1 | 14 | -6% | x | x
CCOC(=O)COC(=O)c1ccc(Oc2cc(C)nc(SC)n2)cc1 | -1 | 1.7 | -5% | 0 | -3
OC1(c2ccc(Cl)cc2)CCN(Cc2cn[nH]c2-c2ccc(F)cc2)CC1 | -3 | 0.2 | -9% | x | x
CN1CCN(c2ccc(NC(=O)c3ccc([N+](=O)[O-])o3)cc2Cl)CC1 | 100 | -6.1 | x | x | x
O=C(Nc1sc2c(c1-c1nc3ccccc3[nH]1)CCCC2)C1CCCC1 | -10 | 3.5 | 6% | 6 | -3
Nc1[nH]n(-c2ccccc2)c(=O)c1N=Nc1ccc2ncsc2c1 | 89 | 2.1 | 9% | x | x
CCC1CCCCN1c1nc2c(C=O)c(C)nn2c2ccccc12 (configuration not stated) | 7 | -1.5 | 12% | -10 | -4
CS/C(=N\S(=O)(=O)c1ccccc1)c1ccccc1 | 0 | 0.3 | -1% | -1 | -20
Cc1ccc2oc(=O)c(/C=C(\O)c3cccs3)nc2c1 | -6 | x | -2% | x | x
COC(=O)c1ccc(Cn2cc(C(F)(F)F)cc([N+](=O)[O-])c2=O)cc1 | 73 | -7.6 | 30µM* | -14 | x
CC(=O)N(C)/C=C1\Sc2ccccc2C1=O | 2 | -4.1 | x | 8 | 21
Cc1ccc2nc(/C(C#N)=C/c3ccccc3C(=O)O)[nH]c2c1 | 2 | -8.3 | x | x | x
Cc1cc(CN2CCC(n3nccc3NC(=O)c3ccccc3C)CC2)n[nH]1 | -3 | -2.0 | x | x | x
c1ccc(CNc2nc3ccccc3n3cnnc23)cc1 | -6 | 2.3 | 4% | -7 | -15
COc1ccc(-n2c(Cc3cccn3C)nnc2SCC(=O)NCC2CCCO2)cc1 (configuration not stated) | -1 | 0.4 | 0% | 1 | -12
Nc1nc(-c2ccc(Oc3ccccc3)cc2)c(CC(=O)O)s1 | 1 | 3.1 | x | x | x
CCN(CC)S(=O)(=O)c1ccc(C(=O)NCC(=O)NC2CC2)cc1 | -2 | 0.8 | x | x | x

Of the compounds above, three contain a COOH group:
SMILES | Mtb betalactam | RecA intein inh | Mtb growth | Arbovirus inh | YopH inh | others
CC(C)(C)NC(=O)C1CCC(C)(C(=O)O)C1(C)C (configuration not stated) | 11 | 1.5 | -6% | 9 | 4
Cc1ccc2nc(/C(C#N)=C/c3ccccc3C(=O)O)[nH]c2c1 | 2 | -8.3 | x | x | x
Nc1nc(-c2ccc(Oc3ccccc3)cc2)c(CC(=O)O)s1 | 1 | 3.1 | x | x | x

Next part.
SMILES | Mtb betalactam | RecA intein inh | Mtb growth | Arbovirus inh | YopH inh | others
COc1ccc(C(=O)Nc2ccc(NC(=O)C(C)C)nc2)cc1 | 8 | -0.5 | 2% | 0 | x
COCC1CCCN(Cc2cn[nH]c2-c2cc3ccccc3o2)C1 (configuration not stated) | -4 | -1.1 | -1% | -2 | x
C/C(=N/NC(=O)c1ccc(C)s1)c1ccncc1 | 2 | 0.3 | x | x | x
COc1ccccc1-c1noc2ncnc(Nc3ccc4c(c3)OCO4)c12 | -12 | -4.2 | x | x | x
COc1ccc(C=C(c2nc3ccccc3s2)c2nc3ccccc3s2)cc1O | 92 | 60* | 23% | -41 | -7
CN(CCO)c1ccc(-c2n[nH]c(=O)c3ccccc23)cc1[N+](=O)[O-] | 4 | 0.7 | x | x | x
CC(NC(=O)CSCc1ccccc1Br)c1ccccc1 (configuration not stated) | 4 | 2.6 | 4% | -4 | -16
O=C(OC1CCCCC1=O)c1cc(=O)c2ccccc2o1 (configuration not stated) | -7 | -0.9 | -6% | -7 | -4
CC(=O)C1=C(O)CC(c2ccccc2)CC1=NCCc1c(C)[nH]c2ccc(C)cc12 (configuration not stated) | 10 | 0.2 | 9% | -12 | -21
CN1CCN(c2ccccc2NC(=O)C(Cc2ccccc2)n2cccc2)CC1 (configuration not stated) | 5 | 0.9 | 12% | 8 | -6 | Arbovirus inh repeat=2
COc1ccc(N(CC(=O)Nc2ccc(S(=O)(=O)N3CCOCC3)cc2)S(=O)(=O)c2ccc(F)cc2)cc1 | -5 | 0.9 | -1% | -16 | x
CCCN(CC(=O)Nc1cc(Cl)ccc1Cl)C(=O)/C=C/c1ccco1 | 7 | 5.1 | -2% | 8 | -7
Cc1ccc(NC(C#N)c2ccccc2OCc2ccccc2)cc1 (configuration not stated) | 10 | 0.9 | x | -9 | -29
CN(C)c1nc(C(N)=O)nc(N2CCOCC2)n1 | 2 | 0.8 | -5% | 7 | -10
CC1CCCCN1C(=O)Cn1c(=O)oc2cc(S(=O)(=O)N3CCCC3)ccc21 (configuration not stated) | -4 | 0.4 | x | x | x
O=C(NCCN1CCOCC1)c1ccc(CS(=O)(=O)Cc2ccccc2F)o1 | -17 | -2.5 | -3% | 12 | 6
COC(=O)CCN(C1CCCCC1)S(=O)(=O)c1ccc(S(=O)(=O)NC2CCCCC2)cc1 | 0 | 3.6 | -1% | -6 | 3
C=CCn1c(O)c(C2=c3ccccc3=NC2=O)c2ccccc21 | 100 | 13 | x | x | x
CCCCn1c(N)c(N(CC(C)C)C(=O)c2cccc(OCc3ccccc3)c2)c(=O)[nH]c1=O | -3 | -2.2 | x | x | x
O=C(/C=C/c1ccc(Cl)c(Cl)c1)n1cccn1 | 2 | 14 | -1% | -4 | -2
CCC(CC)NCc1ccc(OC)cc1OC | -14 | 0.5 | -15% | 11 | -9
O=[N+]([O-])c1cc(S(=O)(=O)NCCCN2CCOCC2)ccc1Cl | -1 | 5.5 | 2% | 6 | -27
COCCNC(=O)C(=O)N/N=C(\C)CC(=O)Nc1ccc(Cl)cc1Cl | 10 | -3.6 | -1% | 0 | -29
COc1ccc(OC)c(CN2CCN(C(=O)COc3cccc(C)c3)CC2)c1 | -5 | -5.1 | -1% | 7 | -30
CCc1ccccc1NC(=O)COc1ccc(N2CC(C(N)=O)CC2=O)cc1 (configuration not stated) | 5 | -1.4 | x | x | x
Cc1ccc2c(c1)c1c(n2CC(O)Cn2c(C)nc3ccccc32)C(=O)CCC1 (configuration not stated) | 0 | 0.9 | 15% | 37* | -26 | Arbovirus inh repeat=14*
O=C(Cn1c(-c2ccccc2)c[n+]2ccsc12)c1ccc(Br)cc1 | 62 | 3.1 | 8% | -3 | x
